Compound activity (PubChem)
CtBP-E1A inh – inhibitors of CtBP/E1A interaction; AID 651724; activity change, % (test concentration not listed); 0.49% of 340,000 active; AlphaScreen GST-E1A/His-CtBP binding, 1536-well; active compounds read low; control for the full effect not named in the record; in the data active means activity change below about -65%; inconclusive means about -30% to -65%; inactive means above about -30%; note: % is set by controls: 0 for no effect and ±100 for the full control effect
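AlphaScreen with 125 nM GST-E1A and 125 nM His-CtBP (5X stocks) in Tris pH 8.0, 300 mM NaCl, BSA, Tween 20, TCEP. Compounds preincubated 2 h at 37 deg C, then glutathione donor/nickel acceptor beads added for 1 h at 37 deg C in dark.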
Six1-Eya2 inh – blocks human Six1 binding to Eya2; Q15475+O00167; activity change, % (no concentration beside the values); AlphaScreen GST-Six1/His-Eya2 binding, biochemical; active compounds read low; control for the full effect not named in the record; 0.56% of 360,000 active; in the data active = activity change below about -65%; inconclusive = about -30% to -65%; inactive = above about -30%; note: % is set by controls: 0 for no effect and ±100 for the full control effect
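AlphaScreen luminescence read after one hour at 37 °C in darkness. Pin-transferred compounds met GST-Six1 and His-Eya2 protein (5X stock 250 nM/500 nM) plus glutathione donor and Ni-chelate acceptor beads (5X, 50 ug/mL).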
PINK1 expr mod – modulators of PINK1 expression | PINK1 immunofluorescence, high-content cytometry, 24 h | Potency, µM (titrated, usually from 76.6 µM), inactives show at the highest dose activation (PINK1 increase), hits mostly activators | 0.2% of 410,000 active; active = well fitted activation curve with a large enough effect; inconclusive = small, poorly fitted or top-dose-only effect; inactive = flat fitted curve, though single readings scatter; cell line not stated here;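 note: potency is the fitted concentration of half-maximal effect; % of control where 0% means no effect; nearly all actives have a fitted effect of over 65% in size; a mitochondrial uncoupler was the plate control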
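Stable cell line, 250 cells/well, 12 h attachment; compounds pinned at 5 concentrations, 24 h; CCCP control. Fixed with nuclear dye, primary antibodies 12 h at 10 degrees C, secondary plus cell stain; laser-scanning cytometer read.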
TRPML1 ag – human mucolipin-1 channel agonism. TRPML1-expressing cells, Ca2+ dye fluorescence, FDSS; host cell line not named in the record; reference of the full effect not given here. Q9GZU1. 0.12% of 410,000 active. activation, % (test concentration not listed). AID 624414; in the data active = activation above about 50%; inconclusive = about 30% to 50%; inactive = below about 30%; note: 0% is about no effect; the text of the record puts the active cut at 80%
Target sequence (Q9GZU1 whole entry, looked up): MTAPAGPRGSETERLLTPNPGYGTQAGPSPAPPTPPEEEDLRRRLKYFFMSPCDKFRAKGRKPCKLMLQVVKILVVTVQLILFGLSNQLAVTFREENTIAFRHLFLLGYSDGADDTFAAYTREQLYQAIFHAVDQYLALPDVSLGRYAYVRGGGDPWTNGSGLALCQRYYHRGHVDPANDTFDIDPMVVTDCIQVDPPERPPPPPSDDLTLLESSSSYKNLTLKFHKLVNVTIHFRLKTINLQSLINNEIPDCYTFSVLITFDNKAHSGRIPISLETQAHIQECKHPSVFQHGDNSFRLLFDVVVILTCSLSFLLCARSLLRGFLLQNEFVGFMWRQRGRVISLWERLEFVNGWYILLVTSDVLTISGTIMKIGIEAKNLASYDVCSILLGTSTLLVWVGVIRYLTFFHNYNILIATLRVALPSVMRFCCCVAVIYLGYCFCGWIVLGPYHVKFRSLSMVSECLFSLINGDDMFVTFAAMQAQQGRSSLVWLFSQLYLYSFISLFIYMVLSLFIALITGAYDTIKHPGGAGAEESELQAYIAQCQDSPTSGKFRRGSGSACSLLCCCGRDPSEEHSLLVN
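Agonist activity was taken from a 110 s kinetic Ca2+ dye read on the FDSS after pinning compounds onto TRPML1-DL cells. The cells were seeded at 1,500/well with Tet inducer, incubated about 16 h, then dye-loaded at room temperature.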
D2 ag – activates the human D2 dopamine receptor | P14416 | DiscoveRx PathHunter D2 beta-arrestin, luminescence, 90 min; 100% = 57 uM dopamine signal | activation, % (test concentration not listed) | 0.084% of 360,000 active | AID 624465; in the data active = activation above about 40%; inconclusive = about 15% to 40%; inactive = below about 15%; note: compound concentration not given in the record; the text of the record calls up to 30% inactive
Target sequence (P14416 whole entry, looked up): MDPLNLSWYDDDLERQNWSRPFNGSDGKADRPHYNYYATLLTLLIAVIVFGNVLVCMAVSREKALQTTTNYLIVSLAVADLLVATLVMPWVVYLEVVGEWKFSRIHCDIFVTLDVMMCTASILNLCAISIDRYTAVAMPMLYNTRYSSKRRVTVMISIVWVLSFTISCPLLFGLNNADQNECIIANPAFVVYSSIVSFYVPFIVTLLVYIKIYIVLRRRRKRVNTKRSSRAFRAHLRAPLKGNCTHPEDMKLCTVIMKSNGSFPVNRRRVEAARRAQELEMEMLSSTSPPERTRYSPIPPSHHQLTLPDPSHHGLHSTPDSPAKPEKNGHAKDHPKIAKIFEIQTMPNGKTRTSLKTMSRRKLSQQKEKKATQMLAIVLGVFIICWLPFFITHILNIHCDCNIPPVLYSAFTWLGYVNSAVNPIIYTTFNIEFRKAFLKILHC
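Agonist mode: compounds alone added to overnight-plated D2 PathHunter cells for 90 min at 37 C, with 57 uM final dopamine (EC100) defining full response. Beta-arrestin recruitment detected by chemiluminescent reagent, read after 1 h at ambient temperature.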
D2 potentiator – positive allosteric modulators of human D2 dopamine receptor; 0.23% of 360,000 active; DiscoveRx D2 beta-arrestin cells, luminescence, 90 min; 100% = 57 uM dopamine signal; potentiation, % (no concentration beside the values); AID 624464; P14416; active = potentiation of 50% or more; inconclusive = 30% to 50%; inactive = 30% or less;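 note: compound concentration not given in the record; tested on top of an EC20 dose of dopamine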
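PathHunter D2 cells, attached overnight at 37 deg C, received compound in DMSO plus dopamine at EC20 (50 nM final) for 90 min at 37 deg C. Beta-arrestin recruitment was read as luminescence after 1 h with detection reagent at ambient temperature.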
* hit, by the source's call; u = inconclusive; x = no result given; & = joins results of further samples; [ ] = another dose, or the depositor's remark. Some of the compounds tested; the hit share may differ from the screen's.

SMILES	CtBP-E1A inh	Six1-Eya2 inh	PINK1 expr mod	TRPML1 ag	D2 ag	D2 potentiator
CC1C2Cn3c(nc4ccccc43)C1N(C)O2 (stereo unspecified)	4.0	1.0	0.1%	-0.4	-3.2	-1.1
CC1CCC(C(C)C)C(OC(=O)COC(=O)c2ccccc2N)C1 (stereo unspecified)	22.5	34.8	u	2.6	2.5	-10.9
O=c1[nH]c(=O)n(-c2cccc3ccccc23)c(O)c1C=NCc1ccc2c(c1)OCO2	-2.2	-4.0	-2.5%	0.1	3.0	29.8
CN1CC(C(=O)c2ccc(Cl)cc2)C(c2ccccc2)C1 (stereo unspecified)	x	-6.5	6.0%	0.5	-7.7	-55.7
COC(=O)C1=C(c2ccc(C(C)=O)cc2)C[C@@H]2CC[C@H]1N2C(=O)N1CCCCC1	x	-1.4	0.9%	-0.5	-1.1	-13.5
CN(C)CCn1cnc2ccccc21	9.1	3.3	0.2%	x	-3.9	-2.1
COc1ccc(-c2nc3ccc(C(=O)N4CCC5(CC4)OCCO5)cc3nc2-c2ccc(OC)cc2)cc1	-6.2	20.1	-1.9%	1.3	11.3	-1.4
COc1ccc(NP(=O)(Oc2cccc(C)c2)Oc2cccc(C)c2)cc1OC	x	-3.9	2.1%	2.3	-1.6	1.5
NC(=O)c1cc([N+](=O)[O-])cc([N+](=O)[O-])c1	5.3	-4.5	0.2%	-0.3	10.1	25.4
C=CC1CN2CCC1CC2[C@@H](OC(=O)c1ccc(OC)cc1)c1ccnc2ccccc12 (stereo partly specified)	-16.8	-3.9	-2.9%	2.1	-7.8	-7.3
CN1CCN(Cc2ccc(OC(F)(F)F)cc2)CC1	4.0	3.3	0.8%	-0.4	-1.9	-27.8
CC(=O)C1CCC2C3CCC4CC(O)CCC4(C)C3C(=O)CC12C (stereo unspecified)	4.8	5.4	-0.2%	0.5	x	x
CNC(=O)c1cccn(Cc2cc(C(F)(F)F)cc(C(F)(F)F)c2)c1=O	0.0	0.1	6.6%	3.2	-7.4	-0.7
CC/C(=N\N1CCN(C)CC1)c1c(O)[nH]c(=O)[nH]c1=O	1.4	-2.8	-3.0%	-0.2	-3.1	-2.8
CCCCCCn1c(O)c(C=NCCCn2ccnc2)c(=O)[nH]c1=O	0.7	4.6	-0.7%	0.8	1.2	-5.5
COc1ccccc1Oc1c(C)oc2cc(OC(=O)N(C)C)ccc2c1=O	2.9	0.3	-1.7%	3.0	-1.8	-2.1
CN1C(=O)CC(c2ccccc2)Nc2ccccc21 (stereo unspecified)	3.9	-11.1	1.6%	-0.4	-2.7	1.2
Cc1ccc(OCC(=O)Nc2ccc(Cl)cc2C(=O)c2ccccc2)cc1	-8.8	1.2	-0.9%&0.5%	0.9&2.1	-0.3	22.1
COC(=O)C1=C(c2cccc(OCc3ccccc3)c2)C[C@@H]2CC[C@H]1N2C(=O)NCc1ccccc1OC	-29.6	-5.3	-0.6%	3.5	0.0	-19.2
O=C(NN1C(=O)C2C3C=CC(C4CC34)C2C1=O)c1cccc(Cl)c1 (stereo unspecified)	10.4	-13.9	u	0.0	-1.2	-3.7

Record cards (already shown). Screens in order: CtBP-E1A inh, Six1-Eya2 inh, PINK1 expr mod, TRPML1 ag, D2 ag, D2 potentiator
O=c1[nH]c(=O)n(-c2cccc3ccccc23)c(O)c1C=NCc1ccc2c(c1)OCO2 across the screens: -2.2, -4.0, -2.5%, 0.1, 3.0, 29.8
CCCCCCn1c(O)c(C=NCCCn2ccnc2)c(=O)[nH]c1=O across the screens: 0.7, 4.6, -0.7%, 0.8, 1.2, -5.5
COc1ccccc1Oc1c(C)oc2cc(OC(=O)N(C)C)ccc2c1=O across the screens: 2.9, 0.3, -1.7%, 3.0, -1.8, -2.1
CC1C2Cn3c(nc4ccccc43)C1N(C)O2 (stereo unspecified) across the screens: 4.0, 1.0, 0.1%, -0.4, -3.2, -1.1

Remaining list, next part:
SMILES	CtBP-E1A inh	Six1-Eya2 inh	PINK1 expr mod	TRPML1 ag	D2 ag	D2 potentiator
C[C@]12CCC3C(CC[C@H]4C[C@H](O)CC[C@]34C)C1C[C@H](O)[C@@H]2O (stereo partly specified)	1.0	4.4	-1.1%	0.1	-8.1	5.7
CCOc1ccc(Br)c(C2(O)CC(C)N(C)CC2C)c1 (stereo unspecified)	-2.6	5.2	0.4%	-0.2	-2.8	-1.6
Cc1cccc(-n2c(C)nc3ccc(Cl)cc3c2=O)c1	1.6	8.1	0.2%	0.7	-0.4	-7.0
CCC(=NC1CCN(Cc2ccccc2)CC1)c1c(O)[nH]c(=O)[nH]c1=O	0.5	-0.8	3.0%[38.3 µM]	-0.3	-2.3	-3.7
C[C@H]1CCC[C@H](O)CCCCCc2cc(O)cc(O)c2C(=O)O1	-10.6	-0.2	-0.7%	1.1	-2.9	1.7
O=c1c2ccccc2nc(/C=C/c2ccc(O)cc2)n1-c1cccc(O)c1	-7.5	-21.6	u	1.0	5.7	10.9
Cc1cccc(-n2c(O)c(C=NCCN3CCNCC3)c(=O)[nH]c2=S)c1	9.3	8.8	0.2%	-1.1	-3.1	-3.7
O=S(=O)(c1ccc(Cl)cc1)N1Cc2ccccc2-n2nncc2C1	0.1	6.9	0.6%	0.1	-5.6	1.3
COc1cc(CC2(CCc3ccncc3)C(=O)NC(=O)NC2=O)cc(OC)c1OC	2.7	6.7	3.9%	0.0	0.1	-6.8
COC(=O)CCCC(NC(=S)N1CC2C[C@@H](C1)Cn1c2cccc1=O)C(=O)OC (stereo partly specified)	8.2	-0.3	-1.3%	1.0	-2.1	-8.3
COCCCNC(=O)c1c(NC(=O)c2ccco2)n(Cc2ccccc2)c2nc3ccccc3nc12	u	-1.3	3.8%	0.7	-4.2	-37.1
COc1cccc(C(=O)N2C[C@H]3C[C@@H](C2)c2cccc(=O)n2C3)c1	5.6	6.6	-0.7%	x	0.6	8.2
CNc1cc(N2CCNCC2)ccc1[N+](=O)[O-]	1.2	5.0	0.0%	0.3	-0.4	x
CCCCCCOc1ccc(CN2CCN(CCO)CC2)cc1	-5.1	-4.7	-4.2%[38.3 µM]	-0.1	-1.1	-5.3
CC(C)C[C@@H]1COc2cc(N3CCN(C)CC3)ccc2S(=O)(=O)N1	0.2	-2.1	1.7%	0.4	x	x
c1ccc(CNCCc2c[nH]c3ccccc23)cc1	x	-17.5	3.3%	-1.0	5.1	-3.7
COc1ccc2c(c1)[C@@]13CCC=C[C@H]1[C@@H](C2)NCC3	-1.2	0.5	-0.4%	0.8	2.2	-6.1
COc1ccccc1N1CCN(Cc2ccccc2Cl)CC1	6.5	-1.0	-21.6%[38.3 µM]	0.4	-1.8	-14.0
CC(=O)c1c(O)n(C2CCCCCC2)c(=O)[nH]c1=O	-0.8	0.7	-0.4%	0.5	0.2	-7.3
CSc1nnc([C@@H](N)Cc2ccccc2)o1	5.5	8.9	-32.3%[38.3 µM]	0.1	-1.3	-0.5
NC(=O)CN1CCCC1=O	-22.9	-4.4	0.9%	-0.2	-2.2	-11.4
CN1CCN(c2nc(N)c(Br)c(Cl)n2)CC1	x	3.9	0.2%	-0.3	-2.5	-54.1
COc1ccc(C(O)P(=O)(OC(C)C)OC(C)C)cc1 (stereo unspecified)	x	3.8	-0.5%	0.6	0.9	-0.2
O=c1[nH]c(O)c(N=Nc2cc([N+](=O)[O-])ccc2O)c(=O)[nH]1	u	-78.1*	0.5%	0.1	-3.2	-23.6
C[C@H](O)[C@H]1CC[C@H]2[C@@H]3CCC4=CC(=O)CC[C@]4(C)[C@H]3CC[C@]12C	2.6	8.6	1.2%	-0.9	-3.7	1.0
CCOP(=O)(Cc1ccc(C#N)o1)OCC	8.8	-0.4	-1.2%	0.0	-6.2	-2.5
O=C(Cc1ccccc1)Oc1ccc([N+](=O)[O-])cc1	2.6	17.1	0.2%	-1.1	-7.6	-29.3
CCC(=NCc1cccnc1)c1c(O)n(Cc2ccccc2)c(=O)[nH]c1=O	0.7	-0.9	0.8%	0.1	-2.8	-17.0
COc1ccccc1N1C(=O)NC(=O)/C(=C/c2ccc3c4c(cccc24)CC3)C1=O	-4.3	-10.3	6.1%	-0.9	-2.1	-28.6
CC1NC(=O)NC(=O)C1Br (stereo unspecified)	4.5	-0.6	1.3%	0.6	0.1	9.8
Cc1cc(OC(C)C(=O)NCC2CCC(C(=O)O)CC2)c2c3c(c(=O)oc2c1)CCC3 (stereo unspecified)	6.7	3.5	0.5%	-0.3	-3.0	10.2
CCC(c1nnnn1-c1ccc2c(c1)OCCO2)N1CCC(n2c(=O)[nH]c3ccccc32)CC1 (stereo unspecified)	-3.1	-10.6	3.9%	-0.7	11.2	x
Nc1cncc(C(=O)O)c1	0.2	1.1&-0.4	-0.6%&0.0%	0.9&0.0	-0.9&2.5	-2.7&-3.1
COc1cc(/C=C2\C(=O)NC(=O)N(c3ccccc3)C2=O)c([N+](=O)[O-])cc1OC	12.8	u	2.7%	-0.8	4.2	4.7
c1ccc2sc(C3CCNCC3)nc2c1	-1.6	0.4	-1.1%	-0.7	-3.7	-9.8
CC(Cc1ccccc1)NCC(=O)Nc1cc(N(C)C)nc2ccccc12 (stereo unspecified)	8.7	7.3	-0.3%	1.3	-1.6	-17.6
c1ccc2sc(C3CCCNC3)nc2c1 (stereo unspecified)	0.7	8.2	0.1%	-0.7	1.2	-12.2
CC(=O)c1c(C)n(Cc2ccccc2)c2ccc(O)cc12	-4.5	0.4	2.2%	0.6	1.7	-8.0
COCCCNC(=O)c1c(NC(=O)c2ccccc2)n(Cc2ccccc2)c2nc3ccccc3nc12	-16.0	-4.3	10.1%	2.2	-5.2	-9.9
O=C(Nc1cccc(OC(=O)N2CCCCC2)c1)N1CCCCC1	-2.1	3.4	-1.1%	-0.6	-1.5	-8.2
Oc1cc(O)cc(/C=C/c2ccc(O)cc2O)c1	u	-29.6	3.9%	-0.2	-3.1	-1.8
COC(=O)C1=C(c2ccc(C(C)=O)cc2)C[C@@H]2CC[C@H]1N2C(=O)N1CCC(C)CC1	-20.0	6.3	0.3%	2.0	-4.0	-22.5
O=C(OC1CCN(CCCl)CC1)C(c1ccccc1)c1ccccc1	2.7	2.7	0.8%	0.2	-5.5	-33.6
CCC1(CCC(C)C)C(=O)NC(=S)NC1=O	-5.2	-12.8	-1.0%	-0.9	-5.7	-7.3
CC(C)=CCOc1c2occc2cc2ccc(=O)oc12	4.7	0.4	-0.9%	1.7	-6.7	-4.8
CCN(CC)c1ccc(N=Cc2c(O)n(CCc3ccc(OC)c(OC)c3)c(=O)[nH]c2=O)cc1	0.0	-0.9	-3.6%	4.4	-2.6	-1.5
COc1cc(CN2CCCC(C(=O)c3sccc3C)C2)cc(OC)c1O (stereo unspecified)	x	-2.5	1.7%	1.4	0.2	-40.6
C=CCN1C[C@@H](C)N(C(c2ccc(C(=O)N(CC)CC)cc2)c2cccc(OC)c2)C[C@@H]1C (stereo partly specified)	4.3	1.5	-0.1%	0.1	-0.7	2.8
O=C(Cc1ccccc1)OCC(=O)N1CCN(S(=O)(=O)c2ccc(Cl)cc2)CC1	-11.0	4.1	-0.9%	4.3	-2.2	5.3
CC(=O)N1Cc2cnnn2-c2ccccc2C1(C#N)Cc1ccccc1 (stereo unspecified)	7.3	3.6	0.9%	0.9	2.1	0.9
COC(=O)C1=C(c2cc3ccccc3o2)C[C@@H]2CC[C@H]1N2C(=O)NCc1ccccc1	-0.8	-2.0	-0.5%	0.6	-1.1	-8.5
